INS promoter inh: TRM-6 insulin promoter activity inhibition. inhibition, % at 2 µM. 130,000 compounds, 0.9% hits. TRM-6 cells (human fetal islet line), insulin promoter-eGFP reporter, imaging; reporter expression induced with tamoxifen;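 active means inhibition above the mean plus 3 SD, with well images judged a real hit on visual review, cut at about 60% in these data, passing the limit was not always enough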
RGS16-Gao HTS: modulates binding between human RGS16 and Galphao; bead-based flow cytometry RGS16-Galphao binding, fluorescence; actives lie on both sides; binding response (% of control), % at 10 µM; 220,000 compounds, 0.38% hits; O15492+P09471;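 active means below 25% or above 175%, edge rows of some plates excepted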;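 further: Galphao activated by GDP with aluminum fluoride before binding; 100% = wells without compound and 0% = beads without RGS; some results beyond the cut were filed as inactive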
Target sequence (O15492 whole entry, looked up): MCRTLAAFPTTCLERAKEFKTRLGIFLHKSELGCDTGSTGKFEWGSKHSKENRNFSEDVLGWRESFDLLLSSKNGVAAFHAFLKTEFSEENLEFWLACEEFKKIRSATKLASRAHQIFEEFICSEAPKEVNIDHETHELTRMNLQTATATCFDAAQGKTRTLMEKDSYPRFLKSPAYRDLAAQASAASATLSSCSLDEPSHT
Target sequence (P09471 whole entry, looked up): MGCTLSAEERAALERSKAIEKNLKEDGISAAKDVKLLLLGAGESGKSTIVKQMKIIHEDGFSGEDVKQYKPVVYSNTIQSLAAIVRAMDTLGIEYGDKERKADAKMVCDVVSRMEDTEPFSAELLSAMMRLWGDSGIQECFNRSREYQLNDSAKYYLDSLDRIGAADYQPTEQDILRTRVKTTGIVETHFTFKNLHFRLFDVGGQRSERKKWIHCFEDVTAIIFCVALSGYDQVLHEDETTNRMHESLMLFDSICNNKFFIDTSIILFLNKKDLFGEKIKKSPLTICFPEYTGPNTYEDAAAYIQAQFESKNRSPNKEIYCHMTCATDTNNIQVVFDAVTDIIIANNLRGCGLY
GALR2 ag: GALR2 (human) receptor agonism; activation, %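 (tested at 5 µM)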; 140,000 compounds, 0.48% hits; O43603; GALR2-expressing cells, agonist activation read-out;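 active means above mean plus 3 SD of all compounds, about 5% in these data, not always enough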;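 further: 0% = vehicle buffer wells and 100% = reference agonist at full effect; tested in CHO reporter cells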
Target sequence (O43603 whole entry, looked up): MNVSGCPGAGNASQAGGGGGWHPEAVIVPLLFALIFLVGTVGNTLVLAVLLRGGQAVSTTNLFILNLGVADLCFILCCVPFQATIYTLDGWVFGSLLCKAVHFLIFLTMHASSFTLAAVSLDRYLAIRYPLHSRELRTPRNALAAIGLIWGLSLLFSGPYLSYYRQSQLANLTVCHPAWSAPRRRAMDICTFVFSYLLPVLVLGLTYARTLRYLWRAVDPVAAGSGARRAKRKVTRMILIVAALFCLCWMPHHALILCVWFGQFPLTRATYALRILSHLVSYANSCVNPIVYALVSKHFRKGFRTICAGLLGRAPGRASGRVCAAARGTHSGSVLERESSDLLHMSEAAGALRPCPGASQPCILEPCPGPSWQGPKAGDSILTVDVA
PKD1 inh: inhibitors of human PKD1 kinase. Q15139. inhibition, %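 (about 10 µM by stock and volumes)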. PKD1 kinase fluorescence polarization assay. 200,000 compounds, 0.056% hits;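 active means inhibition of 50% or more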;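 further: controls were vehicle for no effect and a reference inhibitor for full effect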
HSV replic up: HSV replication enhancement; HSV replication augmentation in cells, fold increase; maximum fold increase; 220,000 compounds, 0.005% hits; AID 1956;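 active means peak rise of 1.5-fold or more in the series; tested in PC3 cells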;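 further: first round at 10 µM; read as green reporter fluorescence; hits show the peak of a series up to 25 µM; 1 = signal of infected wells without compound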
INS promoter inh cell count: second read-out of INS promoter inh, no call of its own (marks repeat the call); normalized cell count, %; measured here: cell count, toxicity; reference of the scale not given here;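 cells exposed to compound for 48 h; stained nuclei by imaging scaled within each plate; lower means fewer cells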
HSV replic up primary fold: further read-out of HSV replic up, marked with its call; fold increase; compound at 10 µM; measured here: primary screen fold increase 10 uM; tested in PC3 cells;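 GFP signal in the first replicate; 1 = infected wells without compound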
Active calls of the source: *; i = inactive; · = not tested or not shown; & = joins results of further samples. Compounds were not picked by outcome; 1.3% or so of the library scored in one or more.

Values run as follows: GALR2 ag | HSV replic up | RGS16-Gao HTS | PKD1 inh | INS promoter inh cell count | INS promoter inh | HSV replic up primary fold
> COc1ccc(CCN2CC(C(=O)O)CC2=O)cc1OC (configuration not stated)
→ -0.9 | i | 86 | -3 | 76 | 13 | 0.96
> COc1ccc(NC(=O)Nc2nnc(-c3ccccc3SCc3ccccc3)s2)cc1
→ -0.7 | i | · | 3 | 171 | -8 | 0.68
> CCc1ccc2oc(-c3cc(N)ccc3O)nc2c1
→ -4.0 | i | 92 | -5 | 55 | 3 | 0.78
> CCS(=O)(=O)Nc1ccc(Cc2ccncc2)cc1
→ -1.4 | i | 105 | -13 | 145 | 20 | 0.97
> Cc1cccc(N(CC(=O)NC(C)(C)C)C(=O)CS(=O)CC(=O)Nc2ccc3c(c2)OCO3)c1 (configuration not stated)
→ · | i | 110 | -7 | · | · | 1
> CCOC(=O)c1ccc(N2C(=O)CC(NNC(=O)c3ccc(Br)s3)C2=O)cc1 (configuration not stated)
→ · | i | 84 | · | · | · | 0.96
> O=S1(=O)CC(O)C(Nc2ccccc2)C1 (configuration not stated)
→ 0.5 | i | 102 | -5 | 113 | 17 | 0.88
> O=C(N/N=C/c1ccccc1Cl)c1[nH]c2ccc(Br)cc2c1-c1ccccc1
→ 3.1 | i | 83 | 15 | · | · | 0.82
> COc1ccc2c3c(cccc13)C(=O)N(O)C2=O
→ 2.7 | i | 101 | 2 | 83 | -14 | 0.83
> CCOC(=O)C1CCCN(C(=O)C2CCN(S(=O)(=O)CC)CC2)C1 (configuration not stated)
→ -0.6 | i | 101 | -7 | 75 | -3 | 1
> Cc1cc(C)c2c(-n3cccc3)c(C(=O)NNS(=O)(=O)c3ccc(F)cc3)sc2n1
→ 0.0 | i | 111 | 2 | 70 | 8 | 0.8
> O=C(N/N=C/c1ccc(N2CCOCC2)s1)c1ccc(NS(=O)(=O)c2cccs2)cc1
→ · | i | 102 | · | · | · | 1.1
> CN(C)c1ccc(C2N(c3ccc(Cl)cc3)C(=O)C3CCCN32)cc1 (configuration not stated)
→ -1.5 | i | 89 | -3 | · | · | 1.3
> CS(=O)(=O)N1CCC(Oc2ccccc2C(=O)NCCCc2cccnc2)CC1
→ · | i | 101 | -6 | 126 | 11 | 1
> CC1(C(=O)NC(=S)N(CCC#N)Cc2cccnc2)CC1(Cl)Cl (configuration not stated)
→ · | i | 106 | -2 | 90 | 4 | 0.98
> COc1ccc(NS(=O)(=O)c2ccc(-n3nnc4ccccc43)c([N+](=O)[O-])c2)cc1
→ -4.3 | i | 98 | -10 | 109 | -39 | 0.86
> COc1ccc(C(=O)Nc2ccc(N3CCCCC3)cc2)cc1Br
→ 0.2 | i | 95 | -4 | 115 | 0 | 0.92
> COc1ccc2[nH]c(C)c(C(=O)CN(C)C)c2c1
→ -2.4 | i | 99 | -13 | 154 | -59 | 0.85
> CCN1C(=O)/C(=C/c2cnn(CC)c2C)SC1=S
→ -1.5 | i | 106 | -6 | 98 | -38 | 1
> CCOC(=O)c1ccc2c(c1)nc(C)n2CC
→ -3.1 | i | 119 | -2 | 84 | 14 | 1
> Nc1nc(Cn2nnc(-c3ccccc3F)n2)nc(N2CCOCC2)n1
→ -0.7 | i | 101 | -7 | 113 | 19 | 1.1
> O=C(CCCC(=O)N(CC(=O)NC1CCCCC1)Cc1ccc2c(c1)OCO2)Nc1ccccn1
→ -0.5 | i | 100 | -5 | 34 | -63 | 0.95
> O=C(Nc1ccccc1)c1cc2ccccc2c(=O)s1
→ -1.2 | i | 109 | 2 | · | · | 0.71
> C=CCSc1nnc(CNC(=O)c2ccccc2C)n1C(C)C
→ · | i | 99 | -3 | · | · | 0.91
> COc1cc(OC)cc(-n2nnnc2SCC(=O)NCc2ccc3c(c2)OCO3)c1
→ -2.5 | i | 95 | 4 | 105 | -24 | 0.81
> Cc1cn(C(=O)c2ccccc2)c(=S)n1-c1ccc(Br)cc1
→ -2.3 | i | 96 | 0 | 96 | 24 | 0.68
> CNCc1c(C)nn(-c2ccccc2)c1C
→ · | i | 185 | 0 | 89 | 50 | 0.95
> Cn1c(-c2ccccc2)cnc1SCC(N)=O
→ -2.6 | i | 112 | -14 | 86 | -39 | 0.75
> COc1ccc(CNC(=S)N/N=C/c2ccc(OC)c(OC)c2)cc1
→ -1.2 | · | 98 | -3 | · | · | ·
> O=C(O)CCSc1ccc2ccccc2n1
→ -2.9&-1.1 | i | 113&99 | 7&12 | 82&75 | -64&21 | 0.95&1
> COc1cc(C(F)(F)F)nc2ccc(C#CCOC(=O)Nc3ccccc3)cc12
→ · | i | 101 | · | · | · | 1
> CCOC(=O)c1ccc(NC(=O)NC2CC3CCC(C2)N3C(=S)NC)cc1 (configuration not stated)
→ · | i | 86 | -7 | 135 | 40 | 0.93
> O=C(COc1ccc(F)cc1)N1c2ccccc2CCc2ccccc21
→ -1.4 | i | 107 | 0 | · | · | 1
> COc1ccc(C(=O)N2CCCC(c3nc(-c4cc(OC)c(OC)c(OC)c4)no3)C2)cc1 (configuration not stated)
→ 1.2 | i | 109 | 4 | · | · | 0.97
> Cc1ccc(C(C#N)N2CCOCC2)cc1 (configuration not stated)
→ -2.9 | i | 65 | -12 | · | · | 0.95
> CCC(=O)NNc1nc2c(C)cc(C)cc2s1
→ · | i | 107 | -5 | 44 | -56 | 0.86
> CCCCCC(C)NC(=S)NC(=O)c1cc(S(=O)(=O)N2CCOCC2)ccc1C (configuration not stated)
→ -0.4 | i | 83 | -4 | 45 | -100 | 0.72
> CCOC(=O)C1CCCN(C(=O)c2cc3nc(-c4cccc(OC)c4)cc(C(F)(F)F)n3n2)C1 (configuration not stated)
→ -0.9 | i | 99 | 2 | · | · | 1
> CC(CCc1ccccc1)NC(=O)COC(=O)c1ccc(S(C)(=O)=O)c([N+](=O)[O-])c1 (configuration not stated)
→ · | i | 103 | -6 | 101 | 14 | 0.52
> O=C(c1ccc(Cl)c(S(=O)(=O)N2CCCCCC2)c1)N1CCN(c2ccccn2)CC1
→ 1.2 | i | 97 | 0 | 55 | 32 | 0.91
> Cc1cc(Cl)ccc1NC(=S)NCCCO
→ -1.1 | i | 84 | -6 | 57 | 24 | 1
> CSc1nc(-c2ccco2)nn1C(=O)c1ccccc1Cl
→ · | i | 97 | · | · | · | 0.96
> O=C(NC1CCCCC1)Oc1ccccc1
→ · | i | 98 | · | · | · | 1.3
> CCN(CC(=O)Nc1sc2c(c1C#N)CCC(C)C2)Cc1nc2ccccc2c(=O)[nH]1 (configuration not stated)
→ · | i | 105 | 3 | 71 | 56 | 1.1
> Cc1cccc(C(=O)NC(=S)N2CCN(C)CC2)c1
→ 0.1 | i | 103 | -12 | 119 | -24 | 0.97
> Cc1nn(CC(=O)O)c2ccccc12
→ -0.3 | i | 107 | -4 | · | · | 0.84
> O=[N+]([O-])c1ccc(C2=NCCO2)cc1
→ · | i | 100 | · | · | · | 1
> CCOCC(=O)Nc1nc(C)cc(C)n1
→ -1.4 | i | 100 | -1 | 89 | 50 | 0.94
> COc1ccc(C(=O)Nc2ccc(Cl)cc2C(=O)N2CCCC(C)C2)cc1OC (configuration not stated)
→ -0.9 | i | 100 | 1 | 64 | -57 | 0.9
> Cc1ccc(OCC(=O)n2nc(C)cc2C)c(C)c1
→ -4.2 | i | 98 | 1 | 83 | -23 | 0.94
> Oc1ccccc1N1CCN(C(=S)Nc2ccc(SC(F)F)cc2)CC1
→ · | i | 103 | -1 | · | · | 0.99
> Cc1ccnc(NC(=S)NC(=O)/C=C/c2ccccc2)c1
→ -3.3 | i | 101 | -8 | 90 | 7 | 0.85
> CCOC(=O)c1c(NC(NC(C)=O)C(Cl)(Cl)Cl)sc(C(C)=O)c1C (configuration not stated)
→ -1.1 | i | 92 | -10 | 74 | -35 | 0.82
> Cc1ccccc1/C=N\NC(=O)c1ccccc1-n1cccc1
→ · | i | 102 | 0 | · | · | 0.95
> Cc1ccc(-c2cc(C(=O)OCn3nnc4ccccc4c3=O)c3ccccc3n2)cc1
→ -0.1 | i | 100 | -20 | 63 | 53 | 0.95
> O=C(CN1CCN(c2ccc(O)cc2)CC1)NC(c1ccccc1)c1ccccc1
→ -1.2 | i | 108 | -1 | 107 | 36 | 0.96
> COc1cc(C(c2c(C)[nH][nH]c2=O)c2c(C)[nH][nH]c2=O)ccc1OS(=O)(=O)c1ccccc1
→ -2.6 | i | 105 | 0 | · | · | 1
> COCCN(CCOC)S(=O)(=O)c1ccc(C(=O)Nc2nnc(C3CC3)o2)cc1
→ -2.7 | i | 92 | -10 | 129 | 70 | 1.1
> Cc1ccn2c(c1)nc(=S)n2C(=O)c1ccccc1
→ -2.4 | i | 66 | -1 | 71 | -14 | 1
> OCCCNCc1ccc(Cl)cc1Cl
→ · | i | 111 | 5 | · | · | 0.96

(list continues)
Values run as follows: GALR2 ag | HSV replic up | RGS16-Gao HTS | PKD1 inh | INS promoter inh cell count | INS promoter inh | HSV replic up primary fold
> COCCCNC(=O)CN1CCN(Cc2ccccc2Cl)C1=O
→ -5.4 | i | 105 | -2 | · | · | 1.1
> N#Cc1ccccc1NC(=O)CNc1ccc(Cl)c(C(F)(F)F)c1
→ -2.1 | i | 142 | -5 | · | · | 1.1
> CCOc1ccc(NC2C=CS(=O)(=O)C2)cc1 (configuration not stated)
→ -2.3 | i | 99 | -6 | 195 | 27 | 0.94
> Cc1c(Nc2scc(-c3ccccc3)[n+]2-c2ccccc2)c(=O)n(-c2ccccc2)n1C
→ · | · | 108 | 4 | 81 | -21 | ·
> COc1ccc(C=NCCC2(O)CC(C)N(C)CC2C)cc1 (configuration not stated)
→ -2.1 | i | 100 | 6 | 113 | 15 | 0.88
> CC(CCc1ccccc1)NC(=O)C1CCCN(c2nnc(-n3cccc3)s2)C1 (configuration not stated)
→ 0.6 | i | 89 | -8 | · | · | 0.87
> COc1ccc(N2CCN(CC(=O)Nc3sccc3C#N)CC2)cc1
→ -3.9 | i | 95 | -14 | 38 | -3 | 1
> Cc1c(/C=N/NC(=O)CNc2ccccc2)c2ccccn2c1C(=O)c1ccncc1
→ 0.1 | i | 106 | 10 | · | · | 0.98
> c1cc(-c2nnc(-c3ccncc3)o2)ccn1
→ -1.6 | i | 111 | 10 | 84 | -8 | 0.85
> COc1cccc(/C=C/C(=O)OCC(=O)c2cc(C)n(CC3CCCO3)c2C)c1OC (configuration not stated)
→ 0.2 | i | 111 | 0 | · | · | 1.1
> COc1ccc(/C=N/Nc2cc(C)nc(NS(=O)(=O)c3ccc(C)cc3)n2)cc1
→ -0.2 | i | 105 | 4 | · | · | 0.9

Another view of some results above:
Structure | GALR2 ag | HSV replic up | RGS16-Gao HTS | PKD1 inh | INS promoter inh cell count | INS promoter inh | HSV replic up primary fold
COc1ccc(CCN2CC(C(=O)O)CC2=O)cc1OC (configuration not stated) | -0.9 | i | 86 | -3 | 76 | 13 | 0.96
COc1ccc(NC(=O)Nc2nnc(-c3ccccc3SCc3ccccc3)s2)cc1 | -0.7 | i | · | 3 | 171 | -8 | 0.68
CCc1ccc2oc(-c3cc(N)ccc3O)nc2c1 | -4.0 | i | 92 | -5 | 55 | 3 | 0.78
CCS(=O)(=O)Nc1ccc(Cc2ccncc2)cc1 | -1.4 | i | 105 | -13 | 145 | 20 | 0.97
Cc1cccc(N(CC(=O)NC(C)(C)C)C(=O)CS(=O)CC(=O)Nc2ccc3c(c2)OCO3)c1 (configuration not stated) | · | i | 110 | -7 | · | · | 1
CCOC(=O)c1ccc(N2C(=O)CC(NNC(=O)c3ccc(Br)s3)C2=O)cc1 (configuration not stated) | · | i | 84 | · | · | · | 0.96
O=S1(=O)CC(O)C(Nc2ccccc2)C1 (configuration not stated) | 0.5 | i | 102 | -5 | 113 | 17 | 0.88
O=C(N/N=C/c1ccccc1Cl)c1[nH]c2ccc(Br)cc2c1-c1ccccc1 | 3.1 | i | 83 | 15 | · | · | 0.82
COc1ccc2c3c(cccc13)C(=O)N(O)C2=O | 2.7 | i | 101 | 2 | 83 | -14 | 0.83
CCOC(=O)C1CCCN(C(=O)C2CCN(S(=O)(=O)CC)CC2)C1 (configuration not stated) | -0.6 | i | 101 | -7 | 75 | -3 | 1
Cc1cc(C)c2c(-n3cccc3)c(C(=O)NNS(=O)(=O)c3ccc(F)cc3)sc2n1 | 0.0 | i | 111 | 2 | 70 | 8 | 0.8
O=C(N/N=C/c1ccc(N2CCOCC2)s1)c1ccc(NS(=O)(=O)c2cccs2)cc1 | · | i | 102 | · | · | · | 1.1
CN(C)c1ccc(C2N(c3ccc(Cl)cc3)C(=O)C3CCCN32)cc1 (configuration not stated) | -1.5 | i | 89 | -3 | · | · | 1.3

Screens (PubChem BioAssay)
